# Screening data from PubChem.
# Tgondii IFNg = inhibitors of Toxoplasma gondii growth with IFN-gamma; Toxoplasma gondii growth in IFN-gamma-treated host cells; hits give low values; reference of the scale not given here; activity change, negative = inhibition, %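 (about 20 µM by stock and volumes)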; hit rate 3.8% among 69,000; AID 1259416;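 active = below -70%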;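 note: host cells are HeLa cells infected with Toxoplasma gondii; parasite growth read as luciferase light; one replicate is shown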
# Active calls of the source: *; i = inactive. Not all compounds are listed (hit frequency here may not be typical).
SMILES,Tgondii IFNg
O=C(c1cscn1)N1CC[C@@H]2[C@H]1CCN2CC1CCOCC1,-67.0
CN1CC2(CCC1=O)CCN(S(=O)(=O)C1CC1)CC2,-46.5
C[C@H]1CCCCO[C@@H](CN(C)CC2CC2)[C@@H](C)CN([C@@H](C)CO)C(=O)c2cc(NC(=O)c3ccccc3)ccc2O1,12.7
COc1cccc(C(=O)Nc2ccc3c(c2)OC[C@@H](C)N(CCc2ccccc2)C[C@@H](C)[C@H](OC)CN(C)C3=O)c1,-30.4
CN1CCC(Cc2noc(-c3cnn(Cc4ccccc4)c3)n2)CC1,-20.4
CCOc1ccc(NS(=O)(=O)c2ccc(NC(=O)c3cccs3)cc2)cc1,1.9
O=C(O)[C@H]1C[C@@H](O)CCN1Cc1cccc(O)c1,4.9
Cc1ccc(S(=O)(=O)N2CCC(N(C)C)CC2C(=O)O)cc1F (stereo unspecified),-2.4
COC(=O)CSC(=O)NC(=O)c1ccccc1Oc1ccc(Cl)cc1Cl,-91.7*
Cc1ccccc1CC(=O)N1CCC2(CC1)NC(=O)c1ccc(F)cc1N2C,-29.2
O=C(Nc1cccnc1)[C@H]1C[C@@H]2OCC[C@@H]2N(C(=O)c2ccco2)C1,-0.7
O=c1[nH]nc(Cc2ccncc2)n1Cc1ccccc1F,-48.6
CC(C)CC#Cc1ccc([C@@H]2[C@H]3CN(C(=O)Nc4ccccc4)CCCCN3[C@H]2CO)cc1,-61.7
C[C@@H]1CN([C@@H](C)CO)C(=O)c2cccc(NC(=O)c3cnccn3)c2O[C@@H]1CN(C)C(=O)NC1CCCCC1,-14.9
O=C(c1ccc(CN2CCCCC2)o1)N1CCn2cnnc2C1,7.8
CC(C)c1nccn1CCCNC(=O)c1ccc(-c2ccc3cc[nH]c3c2)nc1,-10.3
COc1cccc(-c2ccc3cc(C(=O)Cc4cccnc4)c(-c4cocn4)n3c2)c1,39.7
CCN(CC)C(=O)c1ccc(Cl)c(NC(=O)COc2ccccc2O)c1,-47.1
O=C(NC(=O)c1ccccc1O)c1ccoc1,-84.2*
Cn1c(=O)c2c(ncn2CCC(=O)Nc2nc3ccccc3s2)n(C)c1=O,-48.2
COc1ccc(CCN(C)C2CCCN(c3ncnc4[nH]ccc34)C2)cc1OC (stereo unspecified),3.8
CCN1c2cc(Cl)ccc2C(=O)NC12CCN(C(=O)Nc1ccc(OC)cc1)CC2,285.0
O=C(CN1C(=O)c2ccccc2C1=O)NCCc1csc(-c2cccc(F)c2)n1,33.5
Cc1ccc(NC(=O)Nc2ccc(-c3nc(-c4ccc(C)cc4)co3)cc2)cc1,39.9
CCc1cnc(NCc2cccnc2N2CCN(c3ccccc3OC)CC2)nc1,139.0
# Additional compounds follow:
SMILES,Tgondii IFNg
O=C(Oc1ccc2c3c(c(=O)oc2c1)CCCC3)c1ccco1,8.4
O=C(CSc1cccc2cccnc12)OCC(=O)c1ccccc1,-89.3*
Cc1noc(C)c1C(=O)OCc1ccc(-c2ccc(F)cc2F)o1,28.4
Cc1cc(NC(=O)COc2ccc3c(c2)OCO3)no1,-62.7
O=C(Nc1ccc(F)cc1)c1c(O)c2cccnc2n(-c2ccccc2)c1=O,-4.1
COc1cccc2c1OCC(C(=O)N1C[C@@H]3[C@@H]4CC[C@@H](C4)[C@@H]3C1)C2 (stereo partly specified),-54.3
O=C(NCCc1nc2ccccc2o1)c1cccc(Cn2cccn2)c1,24.2
CCc1ccccc1NC(=O)C1=C(C)C(=O)OC12CCN(S(=O)(=O)CC)CC2,21.7
COc1ccccc1-c1ccccc1[C@H]1[C@@H](CO)N(C(=O)C2CCOCC2)[C@H]1C#N,-28.5
COc1ccc2c(c1)NC1(CCN(C(=O)Nc3ccccc3OC)CC1)c1cccn1-2,418.2
COc1ccc(-c2cc3c(=O)n(Cc4nc(-c5ccccc5)oc4C)ccn3n2)cc1OC,-27.5
COc1ccccc1N1CCN([C@H]2CN(C(=O)c3ccc[nH]3)C[C@@H]2O)CC1,-4.3
Cn1c(=O)n(C)c2cc(CN3Cc4ccccc4OC4(CCC(CO)CC4)C3)ccc21 (stereo unspecified),6.1
O=C(O)CCSCCc1ccncc1,-0.6
CC(C)Oc1ccc(NC(=O)c2cc(-c3ccn[nH]3)n3ccccc23)cc1,25.6
Cc1cccc(-n2ncc3c(NCc4cccc(Cl)c4)ncnc32)c1,-32.6
COc1ccc2[nH]cc(CCN3CC(C(=O)Nc4nnc(C(C)(C)C)s4)CC3=O)c2c1 (stereo unspecified),114.6
COCCN1CC2(CCN(C(=O)c3cc(C)oc3C)CC2)C2(CCN(C)C2=O)C1 (stereo unspecified),47.2
O=C1CS/C(=N\N2CCOCC2)N1Cc1ccccc1,9.2
Cn1cc(CN(Cc2ncc[nH]2)C2CC2)cn1,19.1
C[C@H](NC(=O)C[C@H]1CC[C@H]2[C@@H](COC[C@@H](O)CN2C(=O)Nc2cccc(Cl)c2)O1)c1ccccc1,-36.8
Cc1cc(C)n(-c2cc(-c3ccccc3)nc3ncnn23)n1,0.8
CCN(Cc1nccn1C)C(=O)c1ccc(-c2c(F)cccc2OC)nc1,-3.7
C=CCN1C(=O)CCC12CCC(NC(=O)c1c(C)noc1C)CC2 (stereo unspecified),8.4
CCN1CCC2(CN(CC(C)C)CC23CCN(S(=O)(=O)c2cccs2)CC3)C1=O (stereo unspecified),-27.3

# Arranged by length of the SMILES (ascending): some entries from above.
SMILES,Tgondii IFNg
O=C(NCCc1nc2ccccc2o1)c1cccc(Cn2cccn2)c1,24.2
CC(C)CC#Cc1ccc([C@@H]2[C@H]3CN(C(=O)Nc4ccccc4)CCCCN3[C@H]2CO)cc1,-61.7
C[C@@H]1CN([C@@H](C)CO)C(=O)c2cccc(NC(=O)c3cnccn3)c2O[C@@H]1CN(C)C(=O)NC1CCCCC1,-14.9

# Other records follow:
SMILES,Tgondii IFNg
O=C(c1cnccn1)N1CC(=O)N2[C@H](CO)[C@@H](c3ccc(/C=C/c4ccccc4)cc3)[C@H]2C1,-13.2
O=C(CS(=O)(=O)Cc1ccccc1)NCc1ccc2c(c1)OCO2,-2.9
CN1C(=O)N(c2ccc(Cl)cc2)C(C)(O)CC1(C)C (stereo unspecified),-11.7
N#Cc1cccc(C#N)c1Oc1ccc(NS(=O)(=O)c2ccc(F)cc2F)cc1,38.9
CC(C(=O)NCCn1ccnc1)N(c1ccccc1)S(C)(=O)=O (stereo unspecified),-4.1
CCC(C(=O)N1CCCN(C)CC1)n1cc(C(C)=O)c2ccccc21 (stereo unspecified),7.8
Cc1ccc(C2(O)CCN(Cc3nnnn3Cc3ccccc3)CC2)nc1,-10.0
O=C(/C=C/c1cccs1)NCC1Cc2cc(F)cc(-c3ccccn3)c2O1 (stereo unspecified),-4.2
Cc1ccc2[nH]cc(-c3cc(O)cc(C(=O)O)c3)c2c1,4.3
NC(=O)c1ccccc1OCCOc1ccccc1C(N)=O,42.4
COCCCNC(=O)c1cncc(N(C)S(=O)(=O)c2ccccc2)c1,14.3
CCOc1ccc(CNC(=O)c2ccc(-c3nc(CN4CCc5ccccc54)c(C)o3)cc2)cc1,10.2
N#C[C@H]1[C@@H](c2ccccc2)[C@H](CO)N1C(=O)c1ccc2c(c1)OCO2,6.3
CC(C)(C)C1=NN(CC(=O)N2CCOCC2)C(=O)c2cc3ccccc3n2C1,42.9
Cc1ccc(CN2Cc3ncn(C)c3C(COCC3CC3)C2)s1 (stereo unspecified),7.3
CCCC#Cc1ccc([C@H]2[C@@H](CO)N3C(=O)CN(C(=O)Nc4cccc(F)c4)C[C@H]23)cc1,-19.6
CC(C)CC#Cc1ccc([C@H]2[C@@H](CO)N3C(=O)CN(C(=O)Nc4cc(F)ccc4F)C[C@H]23)cc1,-43.5
COc1cccc(C(=O)N2CCc3c([nH]c4ccccc34)C2c2cccnc2)c1 (stereo unspecified),-106.9*
COCCSc1nnc(NC(=O)COc2ccc3c(c2)OCO3)s1,-83.0*
Cc1nnc(SCC(=O)Nc2ccc(Cl)cn2)s1,18.8
S=C1NC(c2ccccc2)=CC(c2ccccc2)N1 (stereo unspecified),1.3
Cc1nc(C)n(CC(C)C(=O)NC(C)(C)CN2CCCCC2C)n1 (stereo unspecified),-47.7
O=c1sn(-c2cccc3ccccc23)c(=O)n1Cc1ccccc1,-14.6
Cc1c(CN(C)C(=O)CN2C(=O)NC(=O)C2(C)C)cnn1C,-5.4
CC(C)c1cc(C(=O)O)nn2cnnc12,1.8
# Next part
SMILES,Tgondii IFNg
O=c1[nH]c(=O)c2nc3ccccc3nc2[nH]1,23.8
CCOc1ccccc1-c1nc(Cc2noc(-c3ccccc3)n2)c(C)o1,-100.7*
O=C(c1cccnc1)N1CCCC(c2nc(N3CCOCC3)ncc2-c2cccnc2)C1 (stereo unspecified),1.0
O=C(Cn1ncc2c(N3CCN(c4ccccn4)CC3)ncnc21)Nc1cc(F)ccc1F,-34.0
C=Cn1cc(CN(Cc2cccnc2)Cc2ccccc2F)c(C)n1,5.8
Cc1cccc(CN2CCC3(CCN(Cc4ccoc4)C3)C2=O)c1 (stereo unspecified),-5.0
CN(C)[C@@H]1CCN(C(=O)c2cscn2)[C@H]1Cc1cccnc1,6.5
COc1ccc2c(c1)C=C(CN1CCC(C3Nc4ccccc4S(=O)(=O)N3)CC1)CO2 (stereo unspecified),19.1
c1ccc2c3c(c(CN4CCCC4)cc2c1)COC3,43.2
Cc1nc2ncccn2c1C(=O)N1CCCC2(C1)C(=O)Nc1ccccc12 (stereo unspecified),-82.0*
CCC(NC(=O)C(=O)c1ccco1)c1cc(C)ccn1 (stereo unspecified),0.4
Cc1nccn1-c1ccc(NC(=O)C2CCCN(C3CCSCC3)C2)cc1 (stereo unspecified),3.5
O=C(NCCCCCc1nc2ccccc2[nH]1)c1ccccc1Cl,18.4
COc1ccc(-n2c(=O)n(Cc3nc(-c4ccc(C)cc4)oc3C)c(=O)c3cccnc32)cc1,16.7
Cn1cc(C(CNC(=O)Nc2ccc3c(c2)OCO3)c2cccnc2)c2ccccc21 (stereo unspecified),i
COc1ccc(-c2nccn2CCc2ncccc2C)c(C)c1C,5.6
CS(=O)(=O)N1CCCC1C(=O)NCc1cnn2ccccc12 (stereo unspecified),-24.8
COc1ccc(F)cc1C(=O)N(CCCO)Cc1ccc(C)s1,-49.1
O=C(CSc1n[nH]c(=O)n1-c1cccnc1)c1cc(-c2ccccc2)no1,-28.8
CCCSCCCNC(=O)c1nc(Nc2ccccc2)c2ccccc2n1,-63.5
COc1ccccc1NS(=O)(=O)c1cc2c3c(c1)CCC(=O)N3CCC2,6.9
CCc1cc2c(=O)c(-c3nc4ccccc4n3C)c(C)oc2cc1O,-3.4
CCCCC(=O)N1CCC2(CCOC2)C1 (stereo unspecified),2.1
C[C@@H]1CCCCO[C@H](CN(C)S(C)(=O)=O)[C@H](C)CN([C@@H](C)CO)C(=O)c2cc(NC(=O)NC3CCCCC3)ccc2O1,27.6
C=CCSc1ncc2c(=S)[nH]c(=S)[nH]c2n1,38.9
# Following part.
SMILES,Tgondii IFNg
COCC1CC2(CCN(Cc3cnn(C)c3)CC2)CO1 (stereo unspecified),18.6
COc1ccc2c3c(n(C)c2c1)[C@@H](CO)N(C(=O)CN(C)C)CC31CCN(Cc2cncnc2)CC1,-28.8
C=CCN(Cc1ccccc1OC)C(=O)c1ccc2n[nH]nc2c1,107.4
CC(C)c1nc(CN(C)c2cc(N3CCOCC3)nc(N)n2)cs1,2.0
c1ccc(-c2ccc(CN3CCn4cncc4C3)cc2)nc1,1.2
COCCn1ccnc1C1CC(=O)Nc2cc(O)c(C)cc21 (stereo unspecified),-1.4
CN1c2ccc(Br)cc2[C@H]2[C@H](CCN2C(=O)C2CCC2)[C@@H]1CO,20.5
Cc1nn(C2CCCCC2)c2c1C(c1nc[nH]c1C)CC(=O)N2 (stereo unspecified),-48.1
C=CCN1CCO[C@H]2CN(C(=O)COc3ccccc3)CC[C@@H]2C1,-1.6
CCn1c(C2CCN(C(=O)Cn3nc4ccccc4n3)CC2)nn(C)c1=O,-1.2
Cc1cccc(NC(=O)N2CCC3(CCC(C(=O)NCC4CC4)O3)CC2)c1 (stereo unspecified),4.4
N#C[C@H]1[C@H](c2ccccc2-c2cccc(F)c2)[C@H](CO)N1C(=O)CN1CCOCC1,2.9
Cc1ccc2nc(COCC(=O)Nc3ncc(Cc4ccccc4)s3)[nH]c2c1,11.5
CN(C)C(=O)N1CCC2(CCCN(C(=O)Cc3cccnc3)C2)C1 (stereo unspecified),-6.5
COc1ccc(-c2cnc(N)cn2)cc1Cl,-87.7*
CC(NC(=O)c1cccc(Cn2cccn2)c1)c1nc2c(s1)CCCC2 (stereo unspecified),23.4
CC(C)n1nnnc1SCC(=O)N1CCN(C(=O)c2ccco2)CC1,6.1
CCOc1ccc(NC(=O)N2CCC3(CC2)NC(=O)c2cc(F)ccc2N3C)cc1,204.1

# By substructure: those above containing a Cl atom
SMILES,Tgondii IFNg
COC(=O)CSC(=O)NC(=O)c1ccccc1Oc1ccc(Cl)cc1Cl,-91.7*
CCN(CC)C(=O)c1ccc(Cl)c(NC(=O)COc2ccccc2O)c1,-47.1
CCN1c2cc(Cl)ccc2C(=O)NC12CCN(C(=O)Nc1ccc(OC)cc1)CC2,285.0
Cc1cccc(-n2ncc3c(NCc4cccc(Cl)c4)ncnc32)c1,-32.6
C[C@H](NC(=O)C[C@H]1CC[C@H]2[C@@H](COC[C@@H](O)CN2C(=O)Nc2cccc(Cl)c2)O1)c1ccccc1,-36.8
CN1C(=O)N(c2ccc(Cl)cc2)C(C)(O)CC1(C)C (stereo unspecified),-11.7
Cc1nnc(SCC(=O)Nc2ccc(Cl)cn2)s1,18.8
O=C(NCCCCCc1nc2ccccc2[nH]1)c1ccccc1Cl,18.4
COc1ccc(-c2cnc(N)cn2)cc1Cl,-87.7*
